T cruzi inh – T. cruzi replication inhibition | T. cruzi beta-gal in NIH3T3, luminescence, 90 h | inhibition, % (test concentration not listed) | actives 1.4% (n = 300,000);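 active = mean inhibition across valid replicates above about 55%, limit read from the data; inconclusive = mean below that limit but half or more replicates reach it; inactive = mean below it, under half of replicates reach it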;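 note: signal also drops with host cell toxicity which is not excluded here; 0% = plate median of DMSO wells and 100% = zero luminescence signal; higher percent means less beta-gal luminescence so fewer parasites; stock transfer was 50 nL into about 50 µL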
MLL AF4-AF9 inh – MLL-AF4/AF9 protein interaction inhibition. inhibition, % at 10 µM. actives 0.47% (n = 350,000). AlphaScreen, biotin-AF4 peptide binding to FLAG-AF9. P42568;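 active = every replicate reaching a set inhibition limit, whatever the replicate mean, cut at about 25% in these data; inconclusive = mean inhibition reaches that limit but some replicates miss it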;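 note: 0% = plate neutral control median and 100% = total signal loss; the record names both 10 and 1 µM as test concentration; the first replicate is given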
Target sequence (P42568 whole entry, looked up): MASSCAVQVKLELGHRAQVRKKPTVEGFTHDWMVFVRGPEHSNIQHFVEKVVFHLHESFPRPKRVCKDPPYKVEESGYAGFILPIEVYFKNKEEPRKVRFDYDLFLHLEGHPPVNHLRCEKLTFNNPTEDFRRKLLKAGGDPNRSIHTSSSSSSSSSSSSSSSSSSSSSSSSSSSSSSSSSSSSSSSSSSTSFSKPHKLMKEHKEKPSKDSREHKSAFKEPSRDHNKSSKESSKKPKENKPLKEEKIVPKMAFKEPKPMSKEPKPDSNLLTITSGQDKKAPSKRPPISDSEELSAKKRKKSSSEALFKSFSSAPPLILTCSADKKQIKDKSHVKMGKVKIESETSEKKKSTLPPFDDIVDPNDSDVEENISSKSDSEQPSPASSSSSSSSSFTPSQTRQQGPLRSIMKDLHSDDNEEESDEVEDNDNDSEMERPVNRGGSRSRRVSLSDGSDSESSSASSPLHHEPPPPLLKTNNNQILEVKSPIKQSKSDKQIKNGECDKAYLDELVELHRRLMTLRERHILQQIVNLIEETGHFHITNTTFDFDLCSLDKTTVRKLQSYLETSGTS
E coli growth – E. coli growth inhibition | actives 0.21% (n = 330,000) | Escherichia coli growth, OD600, 23 h; active compounds read low | OD600 absorbance (concentration not given with the values) | AID 1053175;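 active = OD600 absorbance below the run mean of sample wells minus 3.6 SD, in any replicate, cut at about 0.56 in these data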;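 note: stock transfer was 300 nL into about 60 µL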
Beta cell apopt – beta cell apoptosis inhibition; INS-1E cytokine-induced death, ATP luminescence, 48 h; percent of positive-control rescue, neutral wells zero; protection from apoptosis, % (no concentration beside the values); actives 0.8% (n = 300,000); AID 435005;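 active = all replicates at 75% or more, or half of them and the mean; inconclusive = half reach 75% but not the mean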;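 note: 0% = cytokine-treated negative control wells and 100% = positive control rescue; higher means more ATP so stronger rescue from cytokine killing; wells of about 40 µL received 100 nL stock; the first replicate is given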
Bfl-1 A1 inh – inhibitors of the anti-apoptotic protein A1, read as caspase activation | MEF A1-2A-BIM cells, Caspase-Glo 3/7 luminescence, 3 h; percent of clofoctol response, vehicle zero | actives 0.066% (n = 330,000) | caspase activation, % (concentration not given with the values);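 active = over half of replicate activation scores above 10%, or exactly half above 10 with the replicate mean above 10; inconclusive = replicate mean below 10 yet half the replicates above 10; inactive = over half of replicates below 10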;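 note: wells of about 30 µL received 50 nL stock; many hits fall short of the cut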
Ecoli rRNA inh – inhibits bacterial ribosomal RNA function over humanized ribosomes. actives 1.6% (n = 350,000). GFP signal change (wild-type ribosome), % (no concentration beside the values). E. coli WT GFP vs humanized-ribosome RFP mutants, fluorescence, 24 h; active compounds read low; DMSO median 0, no signal -100. AID 720706;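 active = significant combined selectivity score with lowered wild-type GFP, culture density cut under 30%, mutant RFP and density less affected; inactive = any of these conditions unmet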; note: one replicate is shown; some compounds called inactive have numbers as strong as hits
FGF22 binding – shifts melting point of recombinant human FGF22; Q9HCT0; recombinant FGF22 thermal shift, SYPRO orange fluorescence; percent of sucrose octasulfate shift, DMSO zero; calls only at 9.99 µM; actives 1.5% (n = 340,000); AID 651658;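 active = melting point raised past a set limit in the mean and every replicate; inconclusive = no clear call; three in four hits are not shown here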
Target sequence (Q9HCT0 whole entry, looked up): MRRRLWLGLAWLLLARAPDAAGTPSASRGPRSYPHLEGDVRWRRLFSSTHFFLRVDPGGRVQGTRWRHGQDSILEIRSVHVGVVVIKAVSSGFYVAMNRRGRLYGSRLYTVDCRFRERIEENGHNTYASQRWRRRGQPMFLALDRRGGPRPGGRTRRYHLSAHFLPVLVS
UCH37 DUB inh – inhibitors of human deubiquitinating enzyme UCH37 | actives 0.33% (n = 330,000) | purified proteasome/UCH37, Ub-AMC cleavage fluorescence | inhibition, % (test concentration not listed) | Q9Y5K5;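 active = mean of two replicates above 20%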;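 note: 0% = compound-free wells with enzyme and 100% = wells lacking proteasome; stock transfer was 100 nL into about 20 µL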
Target sequence (Q9Y5K5 whole entry, looked up): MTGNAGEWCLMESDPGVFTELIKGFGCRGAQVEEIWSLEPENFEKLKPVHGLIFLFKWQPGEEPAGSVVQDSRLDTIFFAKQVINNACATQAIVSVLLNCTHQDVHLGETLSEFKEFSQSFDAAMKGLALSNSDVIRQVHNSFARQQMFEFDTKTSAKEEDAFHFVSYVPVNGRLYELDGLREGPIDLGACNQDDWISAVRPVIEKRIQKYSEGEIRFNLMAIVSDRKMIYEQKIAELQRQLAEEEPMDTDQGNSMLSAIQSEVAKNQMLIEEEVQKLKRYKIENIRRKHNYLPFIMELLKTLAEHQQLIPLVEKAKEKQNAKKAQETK
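Material: Human UCH37 enzyme supplied as purified proteasome complex | Schedule: 30 min preincubation with enzyme, 25 min cleavage at room temperature | Detection: AMC fluorescence 355/460 nm | Measure: % inhibition of Ub-AMC cleavage fluorescence | Controls: Wells without proteasome as full block, compound-free enzyme plus substrate as uninhibited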
Ecoli rRNA inh OD600 – recorded beside Ecoli rRNA inh, whose call it bears; OD600 change, %; measured here: OD600 growth;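 optical density of the mix in the first replicate; 0 = DMSO median and -100 = no signal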
Ecoli rRNA inh RFP – further read-out of Ecoli rRNA inh, marked with its call; RFP signal change, %; measured here: RFP humanized mutant strains;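 first replicate; 0 = DMSO median and -100 = no signal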
* marks the source's active call; other numbers are inactive results; i = inactive; ? = inconclusive; . = no result given. Some of the compounds tested, so the mix of outcomes need not match the whole.

Value order: T cruzi inh | MLL AF4-AF9 inh | E coli growth | Beta cell apopt | Bfl-1 A1 inh | Ecoli rRNA inh | Ecoli rRNA inh OD600 | Ecoli rRNA inh RFP | FGF22 binding | UCH37 DUB inh
1	COc1ccc(-n2nc3c(=O)[nH][nH]c3cc2=O)cc1
    -8 | 2.5 | . | -8 | 0.9 | 12 | 5 | -6.0 | i | .
2	CCCNC(=O)CN1C(=O)NC2(CCCc3cc(OC)ccc32)C1=O (centres undefined)
    -9 | . | 0.7 | -1 | 1.4 | . | . | . | . | 0.1
3	O=C(CN1CCCC1)Nc1sc2c(c1C(=O)Nc1ccc(Br)cc1)CCC2
    51 | -1.4 | . | . | -0.6 | -13 | 6 | 0.7 | i | .
4	CCN1c2ccccc2S(=O)(=O)c2ccccc21
    -11 | ? | 0.67 | -11 | 1.7 | -7 | -4 | 5.5 | i | -1.9
5	COc1ccc2nc(NC(=O)CSc3nc(C)cc(C)n3)sc2c1
    2 | . | 0.65 | 2 | -0.2 | . | . | . | . | 2.3
6	NC(=O)c1ccc(OCC(F)(F)C(F)(F)C(F)(F)C(F)(F)C(F)(F)C(F)F)cc1
    3 | -5.2 | 0.67 | -2 | 0.4 | 14 | 5 | 0.6 | . | 0.4
7	O=C(CNS(=O)(=O)c1ccccc1)OCC(=O)c1ccc(Br)cc1
    -11 | -1.5 | 0.67 | -4 | -0.7 | 2 | 2 | 2.7 | i | 0.2
8	CC(NC(=O)COC(=O)CCN1C(=O)C2CC=CCC2C1=O)c1ccc(Br)cc1 (centres undefined)
    . | 0.5 | 0.67 | -1 | 1.6 | -2 | -2 | 3.3 | i | 3.4
9	COc1ccc(NC(=O)NN2CCN(C)CC2)cc1OC
    40 | -2.3 | 0.7 | -2 | 0.6 | 13 | 7 | 1.6 | i | 4.7
10	COC(=O)c1ccc(NC(=S)NCCC2=CCCCC2)cc1
    -4 | . | 0.66 | -18 | -0.3 | . | . | . | . | 1.6
11	Cn1c(=O)cc(OCC(=O)NCc2ccccn2)c2ccccc21
    -7 | . | 0.73 | -9 | 1.2 | . | . | . | . | 1.9
12	CCCn1c(COc2ccc(C(=O)O)cc2)nc2ccccc21
    -3 | -1.2 | 0.65 | 2 | 0.4 | 4 | -1 | 0.2 | i | 5.0
13	Cc1ccc(/C=C2\CC(C)CC3=C2NC(=S)NC3c2ccc(C)cc2)cc1 (centres undefined)
    14 | -0.7 | 0.71 | -6 | -0.1 | -3 | -1 | 16 | i | 2.7
14	Cc1noc(C)c1COc1ccc(C(=O)OCC(=O)N2CC(=O)Nc3ccccc32)cc1
    3 | . | 0.64 | 0 | 0.6 | . | . | . | . | 2.8
15	CCOC(=O)c1[nH]c(COC(=O)C2CC(=O)N(Cc3ccccc3)C2)c(C(=O)OCC)c1C (centres undefined)
    7 | . | 0.69 | 3 | -2.0 | . | . | . | . | 0.0
16	Cc1ccsc1CN(C)C(=O)CCc1nnc(COc2ccccc2)o1
    7 | -14 | 0.69 | -17 | -0.9 | -3 | -2 | -3.2 | i | -0.2
17	CCOC(=O)N1CCN(C(=O)C(NS(=O)(=O)c2cccc3nsnc23)c2ccccc2)CC1 (centres undefined)
    16 | . | 0.67 | -1 | -0.5 | . | . | . | . | 2.6
18	CCN(CC)C(=O)CSc1nc(O)cc(=O)n1-c1ccccc1OC
    -8 | 1.0 | 0.71 | -3 | 0.5 | . | . | . | i | 1.2
19	CCCn1c(=O)c2ccccc2n2c(SCC(=O)/C(C#N)=C(\C)N)nnc12
    8 | 5.1 | 0.72 | 8 | 1.5 | -4 | -6 | 1.8 | i | 4.2
20	CC(C)c1ccc(NC(=O)c2ccc(NC3=NC4CS(=O)(=O)CC4S3)cc2)cc1 (centres undefined)
    -4 | -3.9 | 0.8 | 4 | . | 7 | 12 | 1.4 | i | 4.6
21	COc1ccc(CN2C(=O)c3cccnc3C2=O)cc1S(=O)(=O)N1CCOc2ccc(C)cc21
    -6 | 0.7 | 0.71 | -5 | -0.7 | 16 | 21 | 3.9 | i | 3.0
22	Cc1ccc(C(=O)N2CCC(C(=O)NC3CCCC3)CC2)cc1
    -4 | 2.2 | 0.66 | 1 | 0.3 | 3 | 9 | 0.0 | i | 1.0
23	Cc1ccccc1OCc1nc2ccccc2c(=O)n1N
    14 | . | 0.72 | 4 | -6.4 | . | . | . | . | -0.1
24	Cc1ccc(C(=O)N/N=C\c2ccc3c(c2)OCO3)cn1
    4 | -3.1 | . | -12 | 0.3 | 2 | -2 | -1.6 | i | .
25	CC(C)CC(=O)Nc1nc2ccc(S(=O)(=O)N3CCOCC3)cc2s1
    0 | . | 0.68 | -2 | 1.4 | 4 | 11 | 3.6 | . | 3.8
26	COc1ccc(Cn2cnc3c([N+](=O)[O-])c(C)c(C)cc32)cc1
    5 | . | 0.66 | 5 | -0.2 | . | . | . | . | 4.7
27	O=C(CNS(=O)(=O)c1ccccc1)OCC(=O)c1ccc(OC(=O)c2ccccc2)cc1
    -14 | . | 0.77 | -3 | 1.3 | . | . | . | . | 2.5
28	CCC(=O)N1CCc2cc(OC)c(OC)cc2C1COc1ccccc1OC (centres undefined)
    6 | -1.2 | 0.69 | . | . | -15 | -3 | 0.9 | i | 0.9
29	O=C(CC12CC3CC(CC(C3)C1)C2)NC(=S)Nc1ccc(CN2CCOCC2)cc1
    82* | 4.9 | 0.69 | 4 | 1.5 | 6 | 2 | 15 | i | 3.6
30	Cc1nc2ccccc2c(=O)n1NC(=O)c1ccc(Cl)cc1
    -8 | 0.2 | 0.65 | -1 | 1.2 | 1 | 6 | 0.0 | i | 0.0
31	COC(=O)c1ccc(CSc2nnc3sc4ccccc4n23)o1
    2 | . | 0.68 | -3 | 0.5 | . | . | . | . | -2.5
32	Cc1noc(C)c1COc1ccc(C(=O)Nc2ccccc2)cc1
    1 | -2.5 | 0.73 | -1 | -0.9 | 10 | 15 | 0.7 | i | -0.2
33	COC(=O)c1ccc(NC(=O)Nc2ccccc2F)cc1
    -18 | 1.7 | 0.68 | 3 | -6.8 | -24 | -28 | 2.7 | i | 0.3
34	COc1ccccc1N1CCN(CCCCCCOc2ccc(F)cc2)CC1
    26 | 13 | 0.67 | 7 | 0.1 | -17 | -21 | 11 | i | 5.5
35	CC(=O)OC(C(=O)NCc1ccco1)c1cccnc1 (centres undefined)
    -13 | . | 0.73 | -1 | -2.0 | . | . | . | . | -1.1
36	Cc1c(C(=O)NCc2ccc3c(c2)OCO3)sc2nc(-c3ccccc3)cn12
    17 | -38 | 0.79 | -1 | -0.6 | 2 | 16 | -2.8 | i | 6.1
37	CCOc1ccc(Oc2cc(C)nc(SC)n2)nn1
    2 | . | 0.73 | -2 | -0.9 | . | . | . | . | 3.0
38	COc1ccc(CCNC(=O)c2sc(=S)n(C)c2N)cc1
    -8 | . | 0.76 | -3 | 0.1 | . | . | . | . | -10
39	CC(C)(C)NC(=O)CN(C(=O)CSc1nnc(COc2ccccc2)o1)c1cccc(F)c1
    -9 | -3.2 | 0.68 | -3 | 0.3 | 0 | 15 | -0.8 | i | 0.5
40	Cc1cc(NC(=O)Nc2cc(Cl)sc2Cl)no1
    -4 | -0.8 | 0.65 | 0 | -0.7 | 7 | 15 | 3.5 | i | -0.1
41	O=C(CC1CCCCC1)NCc1ccc(Cl)cc1
    -16 | -1.4 | 0.65 | -7 | 0.5 | 11 | -3 | 1.2 | i | 0.1
42	CN1CCN(C(=O)c2ccccc2NC(=O)c2ccc(C(C)(C)C)cc2)CC1
    16 | 3.0 | 0.65 | -1 | -2.2 | 3 | 0 | 2.1 | i | 0.2
43	COc1ccc(Cl)cc1CSc1n[nH]c(C)n1
    -19 | 3.6 | 0.64 | -7 | -0.1 | -28 | -24 | -11 | i | 0.7
44	CC1(C)CC(=O)c2cnc(NC3CC3)nc2C1
    10 | 2.9 | . | -6 | -0.4 | 6 | 12 | 3.9 | i | .
45	CCCCOc1ccc(C(=O)NCC(=O)N2CC=C(c3ccccc3)CC2)cc1
    2 | 3.6 | 0.63 | 4 | 0.6 | 1 | 9 | -1.8 | i | 2.6
46	O=C(CCCOC(=O)c1ccc(O)cc1O)c1ccc(Br)cc1
    . | 3.1 | 0.7 | . | . | -1 | 1 | 6.6 | i | 3.4
47	Cc1cc(C)nc(SCC(N)=O)n1
    6 | 5.3 | 0.66 | -4 | -0.2 | 6 | 2 | -2.1 | i | -1.0
48	CCOc1ccc(N(CC(=O)NCc2ccco2)S(=O)(=O)c2ccc(OC)c(OC)c2)cc1
    4 | . | 0.76 | -5 | 2.6 | . | . | . | . | 0.4
49	O=Cc1c(N2CCCCCC2)nc2ccccn2c1=O
    -12 | . | 0.69 | -14 | 0.4 | . | . | . | . | 8.0
50	CCC1(C)NC(=O)N(CC(=O)Nc2cc(C)on2)C1=O (centres undefined)
    . | -3.3 | 0.65 | 0 | 1.0 | 11 | 10 | 2.9 | i | 2.8
51	CC(C)Oc1ccc(CN2CCCC(CO)(Cc3ccc(F)cc3)C2)cc1 (centres undefined)
    40 | -3.7 | 0.69 | . | 0.1 | -20 | -24 | 6.7 | i | 4.3
52	CCC(=O)N1CCC(C(N)=O)(N2CCCCC2)CC1
    -8 | -1.6 | 0.72 | -1 | 0.3 | -3 | 0 | -2.0 | i | 5.1
53	C=CCOC(=O)C1=C[C@H](c2csc3ccccc23)C[C@H](OCc2ccc(CO)cc2)O1
    7 | . | . | 1 | 0.3 | . | . | . | . | 3.0
54	O=C(CN1C(=O)c2ccccc2S1(=O)=O)N1CCN(c2cccc(Cl)c2)CC1
    . | . | 0.78 | -4 | 1.3 | . | . | . | . | 3.0
55	Cn1c(=O)c(Nc2ccc(O)cc2)c2c3c(cccc31)C(=O)c1ccccc1-2
    17 | 29* | 0.72 | 5 | -1.3 | -12 | -25 | -5.4 | i | 9.4
56	CC1c2nc3ccccc3n2C(CC(=O)NC2CC2)C(=O)N1Cc1ccccc1 (centres undefined)
    -7 | -0.1 | 0.71 | -1 | -0.4 | 15 | 13 | -0.1 | i | 3.4
57	COC(=O)c1ccc(N2CCOCC2)c(NC(=O)c2ccc3c(c2)OCCO3)c1
    11 | 0.0 | 0.71 | -4 | -0.4 | 16 | 11 | 1.8 | i | -0.6
58	CCOc1ccccc1NC(=O)C1CCCN(S(=O)(=O)c2cccc3cccnc23)C1 (centres undefined)
    18 | -0.7 | 0.74 | -21 | 0.1 | 11 | 6 | 3.9 | i | -0.1
59	C=CCOC(=O)C1=C(C)NC(C)=C(C(=O)OCC=C)C1c1ccc(C)o1
    31 | 10 | 0.68 | 6 | 1.6 | -5 | 1 | 3.3 | i | -7.2

Compound activity: PubChem, several laboratories
